Screens: PubChem, National Center for Advancing Translational Sciences (NCATS)
SARS PLP yeast – blocks SARS-CoV papain-like protease in a yeast assay | S. cerevisiae expressing SARS-CoV PLpro, growth rescue; control for the full effect not named in the record | Potency, µM (top dose mostly 32.9 µM), inactives show at the top dose activity, positive = growth rescue | hit rate 0.19% among 330,000; also: 0% is about no effect; nearly all actives have a fitted effect of over 55% in size; growth read by luminescence after 48 h
NS1 inh – blocks influenza NS1 protein function | S. cerevisiae slowed by influenza A NS1, growth recovery by OD600 | Potency, µM (series often up to 46.1 µM), for the others: at the top dose activity, positive = more growth | hit rate 0.4% among 270,000 | AID 2326; also: actives are rising curves; nearly all actives have a fitted effect of over 50% in size
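Recovery from NS1-induced slow growth read by OD600 in budding yeast switched to galactose assay medium (pH 6.0, -URA) at 1:100 dilution. Compound 23 nl per well; the matching strain lacking NS1 serves as control.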
RE007 growth inh – less growth of the S. pombe RE007 Vpr strain. S. pombe RE007 Vpr strain, BacTiter-Glo ATP luminescence, 24 h; control for the full effect not named in the record. Potency, µM (highest dose often 92.2 µM), without a hit: top-dose activity change, negative = less growth. hit rate 0.21% among 360,000. AID 651644; active = well fitted falling curve with a large enough effect; inconclusive = small, poorly fitted or top-dose-only effect; inactive = no such curve, though single readings can be large or run the other way;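 also: % is scaled to controls: 0 for no effect and ±100 for the full control effect; nearly all actives have a fitted effect of over 50% in size; the assay follows cell death caused by Vpr and the record does not say whether a fall means rescue or toxicity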
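Fission yeast RE007 carrying one integrated HIV-1 vpr copy, seeded at OD 0.01 in PMG+AL medium with 23 nL pinned compound. Grown 24 h at 30 degrees; viability read by BacTiter-Glo luminescence after 5 min.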
StopGo reporter – lowers the luciferase signal of an FMDV 2A StopGo reporter; human cells with a luciferase reporter of 2A StopGo recoding; control for the full effect not named in the record; Potency, µM (titrated, usually from 57.9 µM), without a hit: at the top dose signal change, negative = less light; hit rate 1.2% among 410,000; AID 1159524; active = well fitted falling curve with a large enough effect; inconclusive = small, poorly fitted or top-dose-only effect; inactive = no such curve, though single readings can be large or run the other way; tested in HEK293T cells; also: % is scaled to controls: 0 for no effect and ±100 for the full control effect; nearly all actives have a fitted effect of over 45% in size; luciferase light after 4 h
MARV entry inh – blocks Marburg virus binding to or entry into cells; Marburg virus pseudotyped entry inhibition, cell reporter; control for the full effect not named in the record; about a third of the inactives were read at about 46 µM; Potency, µM (doses to about 37.8 µM), for the others: top-dose activity change, negative = inhibition, hits mostly inhibitors; hit rate 1.8% among 300,000; active = well fitted inhibition curve with a large enough effect; inconclusive = small, poorly fitted or top-dose-only effect, or effect the other way; inactive = flat fitted curve, though single readings scatter; tested in HEK293 cells; about a fifth of its hits are not listed in these tables; also: % is scaled to controls: 0 for no effect and ±100 for the full control effect; luciferase read-out
Lassa entry inh – blocks Lassa virus binding to or entry into cells. Lassa virus pseudotype entry inhibition, cell reporter; control for the full effect not named in the record. Potency, µM (top dose mostly 37.9 µM), without a hit: top-dose activity change, negative = inhibition, hits mostly inhibitors. hit rate 1.2% among 300,000. AID 540256; active means well fitted inhibition curve with a large enough effect; inconclusive means small, poorly fitted or top-dose-only effect, or effect the other way; inactive means flat fitted curve, though single readings scatter; tested in HEK293 cells; also: % is scaled to controls: 0 for no effect and ±100 for the full control effect; nearly all actives have a fitted effect of over 50% in size; luciferase read-out
Cruzain noTriton – blocks cruzain activity in detergent-free assay. hit rate 2.3% among 200,000. Potency, µM, for inactives: max response, negative = inhibition, actives largely listed as inhibitors. purified cruzain, Z-FR-AMC fluorescence, no detergent; active = well fitted curve in the direction sought with a large enough effect; inconclusive = small, poorly fitted or top-dose-only effect, or another doubt; inactive = no such curve, though single readings can be large; an effect the other way counts as inactive or inconclusive;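 also: plate controls were enzyme without inhibitor for no effect and buffer without enzyme for full effect; nearly all actives have a fitted effect of over 40% in size; top concentration of the series not given in the record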
Target sequence (P25779 123-467 limits assumed): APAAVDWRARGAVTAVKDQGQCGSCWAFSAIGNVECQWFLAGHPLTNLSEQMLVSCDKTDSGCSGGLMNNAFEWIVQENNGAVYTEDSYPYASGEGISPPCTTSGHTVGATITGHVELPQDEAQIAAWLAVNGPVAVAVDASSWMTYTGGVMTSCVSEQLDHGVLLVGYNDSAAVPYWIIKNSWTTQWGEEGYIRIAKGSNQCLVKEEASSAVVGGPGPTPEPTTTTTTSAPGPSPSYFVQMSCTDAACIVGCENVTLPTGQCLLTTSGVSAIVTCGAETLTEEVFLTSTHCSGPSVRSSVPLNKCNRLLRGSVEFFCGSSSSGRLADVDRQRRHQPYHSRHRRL
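Purified cruzain at 1.5 nM, pre-incubated 15 min with compound at room temperature in 100 mM sodium acetate pH 5.5, 5 mM DTT, 0.00005% Triton X-100. Reaction started with 2 uM Z-FR-AMC; AMC fluorescence increase over 60 s gives rate.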
Cruzain inh Det – cruzain (T. cruzi) inhibition with detergent; P25779; purified cruzain, Z-FR-AMC fluorescence, 0.01% Triton; Potency, µM, for inactives: max response, negative = inhibition, hits mostly inhibitors; hit rate 0.43% among 200,000; active = well fitted curve in the direction sought with a large enough effect; inconclusive = small, poorly fitted or top-dose-only effect, or another doubt; inactive = no such curve, though single readings can be large; an effect the other way counts as inactive or inconclusive;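 also: plate controls were neutral wells for no effect and buffer without enzyme for full effect; nearly all actives have a fitted effect of over 40% in size; top concentration of the series not given in the record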
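Z-FR-AMC hydrolysis (2 uM substrate) by cruzain (1.5 nM) monitored kinetically at ex 360/em 450 nm after 15 min room-temperature compound exposure; 0.01% Triton X-100, pH 5.5, 5 mM DTT.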
Numbers without * were called inactive; u = inconclusive; x = not tested or not shown; [ ] = another dose, or the depositor's remark. Unless noted, calls follow the shape of the dose curve; as a rule, active means well fitted rising curve with a large enough effect; inconclusive means small, poorly fitted or top-dose-only effect; inactive means no such curve, though single readings can be large or run the other way. Potency is read from the fitted curve at half-maximal effect. Not a hit list, and some 4.6% of all compounds hit somewhere here.

SMILES | SARS PLP yeast | NS1 inh | RE007 growth inh | StopGo reporter | MARV entry inh | Lassa entry inh | Cruzain noTriton | Cruzain inh Det
CCOC(=O)c1cccc(OC(=O)CCNC(=O)c2ccc(Cl)cc2)c1 | -32.0% | x | 7.8% | 6.4% | 2.9% | 19.7% | x | x
Cc1ccc(SCCNC(=O)c2ccc(C)c(S(=O)(=O)Nc3ccccc3C)c2)cc1 | 0.4% | 6.8% | -17.2% | x | 23.1µM* | 10.3µM* | -1.6% | 0.5%
CC1CCCN(CCCNC(=O)CCn2nc(-c3ccccc3)ccc2=O)C1 (stereo not given) | 3.0% | 10.9% | -10.0% | -10.2% | 2.4% | 3.3% | 3.9% | 1.9%
NCC(=O)Nc1ccc(Br)cc1 | -6.1% | x | 2.7% | -14.3% | u | -17.1%[46.1 µM] | x | x
COc1ccccc1C(=O)Nc1ccc(N2CCN(S(C)(=O)=O)CC2)cc1 | -6.6% | -4.3% | 0.9% | 60.9%[activator] | 11.9% | 3.0% | 0.2% | -1.2%
O=C(Nc1ccc2oc(=O)ccc2c1)c1cc([N+](=O)[O-])ccc1N1CCOCC1 | 0.5% | x | -15.0% | -6.5% | 2.2%[46.1 µM] | 8.2%[46.1 µM] | x | x
O=C(/C=C/c1ccc(F)cc1)NCCNC(=O)/C=C/c1ccc(F)cc1 | 0.5% | 1.1% | 3.5% | 4.3% | -6.9%[46.1 µM] | 16.1% | x | x
CC(C)OCCCNC(=O)C(Cc1ccccc1)NS(=O)(=O)c1ccc2c(c1)CCC(=O)N2 (stereo not given) | 0.3% | 4.0% | -0.2% | -3.6% | x | x | x | x
COc1cccc(CNC(=O)C(=O)NCC(c2ccco2)S(=O)(=O)c2cccs2)c1 (stereo not given) | x | x | x | -28.9% | x | -24.2%[46.1 µM] | -3.9% | -2.3%
CCn1cc(C(=O)O)c(=O)c2cc(F)c(N3CCN(C(=O)Nc4ccccc4)CC3)cc21 | -1.5% | -36.6% | -11.2% | -24.8% | 10.9% | 11.1% | 14.4% | -9.3%
Cc1ccc(S(=O)(=O)N2CCN(C(=O)COC(=O)/C=C/c3ccc(F)cc3)CC2)c(C)c1 | -7.0% | x | -13.5% | -28.9% | -16.6%[46.1 µM] | 7.1% | x | x
Cc1ccc(Cn2c(=N)n(CC(O)COc3ccccc3)c3ccccc32)cc1 (stereo not given) | -1.0% | 6.4% | -6.4% | 0.0% | 15.8µM* | u | 9.6% | -0.8%
O=C(Nc1ccc2c(c1)OCO2)c1ccc(Cl)s1 | -7.3% | -64.5% | -0.8% | 11.5% | u | -14.3% | -7.1% | -6.0%
Cn1c(-c2ccccc2)c(/C=N/NC(=O)c2cccnc2)c2ccccc21 | -3.5% | x | 16.0% | -3.4% | u | u | x | x
COc1cccc(/C=N/NC(=O)CSc2ccccc2C)c1O | 22.4µM* | -6.0% | u | 15.6% | u | u | -5.8% | -7.2%
O=C(COC(=O)c1ccco1)NCc1cccs1 | -0.2% | -10.8% | -0.2% | 1.3% | 1.3% | 18.6% | -12.2% | 3.1%
O=C(N[C@H]1CN2CCC1CC2)c1ccc(Cl)cc1 | x | x | x | x | 17.8% | 3.7% | 0.9% | 0.5%
Cc1ccc(NC(=O)CSCC(=O)Nc2nnc(C)s2)cc1 | x | x | -4.9% | -3.1% | -2.9% | 1.7% | x | x
CCn1nc(NS(=O)(=O)c2ccccc2[N+](=O)[O-])c2cc3ccc(C)cc3nc21 | -1.5% | 4.3% | -0.3% | 14.1% | x | x | x | x
CCc1ccc2oc(C(=O)Nc3sc4c(c3C(=O)NC)CCCC4)cc(=O)c2c1 | x | x | x | 20.1% | -6.4%[46.1 µM] | 2.3%[46.1 µM] | -0.7% | -2.2%
COc1ccc(CCNC(=O)C(C)n2c(=O)cc(C(F)(F)F)c3c(C)nn(C)c32)cc1OC (stereo not given) | x | x | x | -17.2% | x | -1.5%[46.1 µM] | u | 1.2%
COC(CNC(=O)c1ccc(CS(=O)(=O)c2ccccc2)o1)OC | -0.7% | 2.7% | 1.1% | -17.1% | 0.5%[46.1 µM] | 17.9% | x | x
CCSc1nnc(NC(=O)[C@@H](NC(=O)c2ccccc2)C(C)C)s1 | -1.8% | -5.1% | 6.0% | -11.6% | -9.3% | 0.1% | -11.9% | 1.7%
CCCc1nn2c(=O)cc(CSCC(=O)Nc3cccc(C)c3)nc2s1 | -2.5% | 10.0% | -3.2% | -3.4% | x | x | x | x
C/C(=N\NC(=O)c1cc(C(C)(C)C)[nH]n1)C12CC3CC(CC(C3)C1)C2 | -0.2% | 0.3% | -7.6% | 22.7% | u | 11.8% | x | x
Next part
SMILES | SARS PLP yeast | NS1 inh | RE007 growth inh | StopGo reporter | MARV entry inh | Lassa entry inh | Cruzain noTriton | Cruzain inh Det
CC(OC(=O)c1cc(S(=O)(=O)N(C)c2ccccc2)ccc1Cl)C(=O)Nc1ccc2c(c1)OCCO2 (stereo not given) | -6.0% | 22.0% | 1.3% | u | 0.1% | -16.3% | u | -1.8%
CCOc1cc(/C=N/Nc2cccc(C(=O)O)c2)ccc1OCC(=O)N1CCCCC1 | -0.2% | -1.4% | 4.3% | -4.1% | u | -1.6% | x | x
COc1ccc(C(=O)NCc2ccc3c(c2)CCN3C(=O)c2ccc(F)cc2)cc1 | x | x | x | -41.7% | x | -22.3%[46.1 µM] | 9.8% | -0.4%
COc1ccc([N+](=O)[O-])cc1N(CC(=O)NC1CCCCC1)S(C)(=O)=O | 0.7% | -1.6% | 5.4% | 20.7% | 6.4%[46.1 µM] | 3.1% | x | x
O=C(COC(=O)c1cccs1)NC1CCCCC1 | -4.9% | -10.7% | -5.2% | 59.3%[activator] | 5.8% | u | 13.2% | 4.6%
COc1ccc2nc(NC(=O)C3CCCN(S(=O)(=O)c4cccc5nsnc45)C3)sc2c1 (stereo not given) | -10.5% | 16.3% | -14.1% | 0.0% | -19.1%[46.1 µM] | -10.3% | u | -4.2%
CCc1cc2c(SCC(=O)c3ccc(Cl)s3)ncnc2s1 | -4.3% | -4.8% | 5.7% | 11.4% | 28.5% | 15.1% | 5.4% | -4.7%
Cc1ccc(-n2c(C)cc3c2CC(C)(C)CC3=O)cc1C | -3.9% | -12.6% | -4.0% | -23.0% | u | u | -0.9% | -2.1%
O=C(COC(=O)c1ccc(O)cc1O)N=c1sccn1Cc1ccccc1Cl | -2.2% | x | -9.1% | u | x | u | x | x
COc1ccc(CCN=CC2=C(O)CCCC2=O)cc1OC | 13.4% | 4.1% | -28.5% | 0.0% | 20.4% | -0.6% | -3.0% | -0.3%
Cc1cc(NC(=O)C2CC2)ncc1NC(=O)c1ccccn1 | -1.1% | -8.1% | -4.6% | 66.2%[activator] | 5.6% | 11.8% | x | x
COc1ccc(N2CCN(C(=O)NC3CC(=O)N(c4ccc(OC)cc4)C3)CC2)cc1 (stereo not given) | 0.9% | x | -9.4% | -9.7% | 1.0%[46.1 µM] | u | x | x
COc1ccc(N(CC(C)C)S(=O)(=O)c2nnc(NC(=O)CC(C)C)s2)cc1 | 1.5% | 4.5% | 7.3% | -7.1% | -17.8%[46.1 µM] | -10.1%[46.1 µM] | x | x
COc1ccc(Cl)cc1NC(=O)CCc1nnc2ccc(N3CCN(C)CC3)nn12 | 0.5% | 3.5% | -1.7% | -13.1% | x | x | x | x
Cc1ccc(CNC(=O)/C=C/c2ccc(S(=O)(=O)N3CCOCC3)cc2)cc1 | -2.9% | 6.2% | 11.8% | -22.9% | u | 14.2% | u | -2.4%
CC(C)N(C)S(=O)(=O)c1ccc(Cl)c(C(=O)O)c1 | 1.1% | x | 7.4% | -2.8% | -2.2% | -12.9% | x | x
Cc1nn(CC(=O)N(C)c2c(N)n(Cc3ccccc3)c(=O)[nH]c2=O)c(C)c1[N+](=O)[O-] | 11.6% | x | -4.1% | -10.2% | u | 13.4% | x | x
O=C(CN(c1cccc([N+](=O)[O-])c1)S(=O)(=O)c1ccccc1)NCc1cccnc1 | -1.6% | 3.2% | -1.7% | 3.0% | -9.8%[46.1 µM] | -16.9%[46.1 µM] | x | x
Cc1cccc(NC(=O)CCCn2c(=S)[nH]c3ccccc3c2=O)c1 | 0.4% | x | 14.3% | 15.6% | u | -17.7%[46.1 µM] | x | x
Cc1oc(-c2ccc(C(=O)NCCC(C)C)cc2)nc1CN1CCc2ccccc21 | x | x | x | u | x | u | 21.2% | -1.7%
O=C(OC(c1ccc(NS(=O)(=O)c2ccccc2)cc1)(C(F)(F)F)C(F)(F)F)c1ccccc1 | -32.8% | -3.5% | 2.8% | -27.2% | u | u | -4.3% | -5.4%
CCC(C)(C)n1nnnc1C(c1ccc(F)cc1)N1CCN(C(=O)c2ccco2)CC1 (stereo not given) | 2.9% | -3.1% | 0.0% | 11.9% | -12.0%[46.1 µM] | -11.6% | x | x
Cc1c(NC(=O)/C(C#N)=C/C2CC=CCC2)c(=O)n(-c2ccccc2)n1C (stereo not given) | 15.9% | 5.7% | -2.1% | -16.6% | -1.2% | 15.1% | u | -4.5%
